# Screening results from PubChem.
# CYP2C9 activ – increases human cytochrome P450 2C9 activity | recombinant CYP2C9, luciferin-H conversion, luminescence; hits give high values; factor 1 = untreated enzyme, 0 = blocked | actives 1.4% (n = 96,000) | activation factor at 5 µM | AID 1024 | P11712;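 active means activation factor of 2 or more for CYP2C9 at a 5 µM dose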;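 further: 0 = sulfaphenazole-blocked wells and 1 = vehicle-only wells; values of inactives mirror those of a sister screen read the other way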
# CYP2C19 activ – activators of human cytochrome P450 2C19; recombinant CYP2C19, luciferin-H EGE luminescence; hits give high values; 0 = fully inhibited enzyme, 1 = untreated enzyme; activation factor at 5 µM; 96,000 tested, under 10 active;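 active means activation factor of at least 2 at 5 µM in the primary screen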;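 further: 0 = wells with 2.5 mM tranylcypromine and 1 = vehicle-only wells; values of inactives mirror those of a sister screen read the other way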
# E coli WT exp – growth inhibitors of E. coli BW25113 wild type | actives 0.15% (n = 98,000) | OD600 absorbance | growth inhibition, % at 100 µM | AID 710;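 active means growth inhibition above about 50% at one test dose, limit read from the data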;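 further: growth measured after 20 h incubation at 37 °C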
# CYP2C19 inhib – inhibitors of human CYP2C19. P33261. CYP2C19 Supersomes, luciferin-H EGE luminescence, 30 min. inhibition, % at 5 µM. actives 21% (n = 96,000);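 active means CYP2C19 inhibition above a set limit at 5 µM in the primary screen, cut at about 50% in these data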;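 further: plate controls were negative control wells for no effect and 2.5 mM tranylcypromine positive control for full effect; values of inactives mirror those of a sister screen read the other way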
# CYP2C9 inhib – human CYP2C9 inhibition. P11712. CYP2C9 Supersomes, luciferin-H conversion, luminescence. inhibition, % at 5 µM. actives 20% (n = 96,000);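 active means blocking of liver enzyme CYP2C9 beyond about 50% at 5 µM, limit read from the data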; further: values of inactives mirror those of a sister screen read the other way
# PostGolgi yeast – growth inhibition of a yeast mutant, post-Golgi transport screen. post-Golgi transport phenotypic cell assay. inhibition, % at 10 µM. actives 0.9% (n = 98,000). AID 739; in the data active means inhibition above about 30%;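 further: yeast cells grown in 1536-well plates; yeast grown about 18 h at 30C before absorbance read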
# * = called active by the depositor. These rows are one share of the data. The share of hits here may be higher or lower than overall.
SMILES,CYP2C9 activ,CYP2C19 activ,E coli WT exp,CYP2C19 inhib,CYP2C9 inhib,PostGolgi yeast
N#Cc1nc(-c2ccc(OCc3ccc(Cl)cc3)cc2)oc1N1CCC(C(N)=O)CC1,0.8,0.9,-8,6,23,5
O=C(Nc1ccc(-c2cc3ccccc3oc2=O)c(Cl)c1)c1cccnc1,2.2*,0.8,-2,22,-120,-2
Nc1ncnc2c1cnn2-c1ccccc1,1,1,4,-2,4,2
CCN1/C(=C/C(C)=O)Sc2ccc(OC)cc21,0.8,0.6,-1,37,24,1
O=C(O)c1ccccc1-c1ccc(/C=c2\sc3nc4cc(Br)cnc4n3c2=O)o1,0.9,1,-1,-1,9,1
Cn1c(SCC(=O)c2ccc3c(c2)Cc2ccccc2-3)nnc1-c1ccccc1,1,0.8,5,20,-1,-8
CCCCn1c(CN2C(=O)c3ccccc3C2=O)nc2ccccc2c1=O,0.7,0.9,-2,6,28,1
N#Cc1cnn2c1nc(N1CCCCC1)c1ccccc12,0.9,1,-8,-3,13,2
O=C(O)c1ccc(F)c(S(=O)(=O)Nc2ccccc2Cl)c1,1,1,0,1,-2,1

# Part of the list above in order of formula weight, rising.
SMILES,CYP2C9 activ,CYP2C19 activ,E coli WT exp,CYP2C19 inhib,CYP2C9 inhib,PostGolgi yeast
CCN1/C(=C/C(C)=O)Sc2ccc(OC)cc21,0.8,0.6,-1,37,24,1
O=C(O)c1ccc(F)c(S(=O)(=O)Nc2ccccc2Cl)c1,1,1,0,1,-2,1
O=C(Nc1ccc(-c2cc3ccccc3oc2=O)c(Cl)c1)c1cccnc1,2.2*,0.8,-2,22,-120,-2
Cn1c(SCC(=O)c2ccc3c(c2)Cc2ccccc2-3)nnc1-c1ccccc1,1,0.8,5,20,-1,-8

# Three compounds from above, ordered by the number in CYP2C19 inhib, ascending.
Structure	CYP2C9 activ	CYP2C19 activ	CYP2C19 inhib	CYP2C9 inhib
Nc1ncnc2c1cnn2-c1ccccc1	1	1	-2	4
Cn1c(SCC(=O)c2ccc3c(c2)Cc2ccccc2-3)nnc1-c1ccccc1	1	0.8	20	-1
O=C(Nc1ccc(-c2cc3ccccc3oc2=O)c(Cl)c1)c1cccnc1	2.2*	0.8	22	-120
